Vaccinia pol inh – vaccinia E9 polymerase processive synthesis inhibitors, primary screen, biochemical, absorbance; in vitro processive DNA synthesis, absorbance read-out; stronger effect = lower value; some inactives read as strong as hits; normalized absorbance, % (no concentration beside the values); Vaccinia virus DNA polymerase (E9) processive complex; hit rate 0.94% among 46,000;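 active = replicate mean up to 90% and picked by the depositor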;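 note: 100% = median of the test wells of a plate; 100 nL library stock went into each well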
Starred values were filed as active, the others as inactive.

SMILES	Vaccinia pol inh
CC(C)(C)c1n[nH]c(C(C)(C)C)c1Cc1c(F)cccc1Cl	99
O=C(/C=N/O)NCc1ccccn1	95
Cc1ccc(NC(=O)CSc2nnc(C)n3c2cc2sccc23)cc1F	104
O=C(CSc1ncc(-c2ccccc2)[nH]1)c1ccc(-c2ccccc2)cc1	100
Cc1ccc2oc3ncc(C(=O)NC(C)(C)C)cc3c(=O)c2c1	93
O=c1c(-c2ccccc2F)coc2cc(O)cc(O)c12	84
c1ccc(-c2cc3c(ncn4cnnc34)s2)cc1	106
CC(/C=C1\SC(=S)N(CC(=O)Nc2cccnc2)C1=O)=C\c1ccccc1	96
CCN1C(=O)/C(=C2/C=Cc3ccccc3N2CC)N(C)C1=S	99
COc1ccccc1Cn1c(=S)[nH]c2cc(C(=O)NCC(OC)OC)ccc2c1=O	98
COc1ccc(CNC(=O)C2c3ccccc3C(=O)N(C)C2c2cccs2)cc1 (centres undefined)	96
O=C(c1ccccc1)N1CCN(C(=O)c2ccco2)CC1	92
COc1ccc(/C=N/O)cc1Cl	89
CC(CC1OCC(CN2CCCCC2)O1)CC(C)(C)C (centres undefined)	105
COC(CNC(=O)c1c[nH]c2ccc(S(=O)(=O)N(C)c3ccc(C(C)C)cc3)cc2c1=O)OC	102

Molecules shown so far that have four or more nitrogen atoms, in the order listed:
SMILES	Vaccinia pol inh
Cc1ccc(NC(=O)CSc2nnc(C)n3c2cc2sccc23)cc1F	104
c1ccc(-c2cc3c(ncn4cnnc34)s2)cc1	106

The list continues.
SMILES	Vaccinia pol inh
O=C(CCN1C(=O)C2CC=CCC2C1=O)N1CCN(c2ccccn2)CC1 (centres undefined)	97
Cc1cc(NC(=O)c2ccccc2OCc2ccccc2)no1	100
O=C(Cn1c(=O)oc2ccccc21)NCCc1ccccc1	90
CCOC(=O)c1c(N2C(=O)C3ON(c4ccccc4C)C(c4ccccc4)C3C2=O)sc(C)c1C (centres undefined)	100
CCOC(=O)c1cc(-c2ccc(OC)cc2)n(CCC(=O)N2CCc3ccccc32)c1C	104
N#Cc1ccccc1OCC(=O)OCc1ccccc1F	95
Cc1[nH]c2ccccc2c1C(c1ccccc1)N1CCN(C)CC1 (centres undefined)	104
COc1ccc(C2OC(c3ccc(S(=O)(=O)N4CCCCC4)cc3)=NN2C(C)=O)cc1 (centres undefined)	104
O=C1CCN(C(=O)c2ccc(Cl)cc2)c2cc3ccccc3cc21	99
Cc1ccc(N(C(=O)c2ccc(C(C)(C)C)cc2)C2C=CS(=O)(=O)C2)cc1 (centres undefined)	101
CC1=C(C(N)=O)C(c2ccco2)C(C#N)=C(SCC(N)=O)N1 (centres undefined)	100
O=C1CCCC/C1=C/Nc1ccc(N/C=C2/CCCCC2=O)cc1	100
O=C(Nc1ccc(C(F)(F)F)cc1)c1cnc(N2CCN(c3ccccn3)CC2)c2ccccc12	100
CCC1CSC(Nc2cccc(C(F)(F)F)c2)=N1 (centres undefined)	98
CCCNS(=O)(=O)c1ccc2c(c1)oc(=O)n2CC(=O)OCC	99
c1cnc2c(CN3CCOCC3)cccc2c1	94
CCCC(=O)NCc1nc2ccccc2[nH]1	99
Cc1nc2cc(N)ccc2n1-c1ccccc1	96
Cn1c(=O)cc(SCC(=O)NCCCN2CCN(c3ccccc3F)CC2)c2ccccc21	95
O=C(NCc1ccccc1)c1cc2c(ccc3ccccc32)oc1=O	101
Clc1cccc(C2NCCc3[nH]cnc32)c1 (centres undefined)	98
CCCNC(=O)c1nnc(Cc2ccc3c(c2)OCO3)o1	90
C=CCSc1n[nH]c(C(C)(C)C)n1	100
COc1ccc(-c2noc(N(CCC#N)c3ccccc3)n2)cc1	103
O=C(NC1CCCCCC1)C1C2C=CC3(CN(Cc4cccnc4)C(=O)C13)O2 (centres undefined)	98
O=C(Nc1nc2ccccc2s1)c1cc(=O)c2ccccc2o1	92
O=c1[nH]c2ccccc2c(=O)n1CCNCc1ccccc1	102
CCOC(=O)C1CCN(C(=O)c2sc3nc(-c4ccccc4)cn3c2C)CC1	94
COc1ccc(Cl)cc1Nc1nc(N)nc(CC(=O)CSc2nc3ccccc3s2)n1	100
CC(C)c1ccc(OCC(=O)c2ccc(O)cc2O)cc1	98
O=C(Oc1ccccc1OC(=O)c1ccccc1)c1ccccc1	100
O=C(OCC(=O)N1CCCCC1)c1cnc(Cl)c(Cl)c1	108
COc1ccc2c(c1)CCc1cn[nH]c1-2	92
O=C(O)C1C2C=CC(O2)C1C(=O)Nc1nc(-c2ccccc2)cs1 (centres undefined)	100
Cc1ccc(SC(=O)c2c(C)noc2-c2cc(C)on2)cc1	86
CCn1c(Cc2ccccc2)nc2ccccc21	100
Cn1c(SCc2ccc(F)cc2)nc2ccc(C(=O)N3CCc4ccccc43)cc21	108
O=C(c1ccccc1)N1CCN=C1SCc1ccccc1	103
COc1ccc(/C=[N+](/C)[O-])cc1	106
CCOC(=O)c1c(N=Cc2ccc(OC)c(OC)c2Cl)n[nH]c1C	69
COc1ccc(C(=O)CNc2ccccc2CO)cc1	97
CC(C)[N+](C)(CCC(C(N)=O)(c1ccccc1)c1ccccc1)C(C)C	100
Cc1ccc(S(=O)(=O)/C(C#N)=C/C2=Cc3ccccc3OC2)cc1	100
Cc1ccc(CN(C)C)c(OC(=O)N(C)C)c1	99
CCC(NS(=O)(=O)c1ccc(C)cc1)C(=O)N1CCCCC1 (centres undefined)	87

Reformatted bar-delimited: entries from further up.
structure | Vaccinia pol inh
COc1ccc(/C=[N+](/C)[O-])cc1 | 106
CCOC(=O)c1c(N=Cc2ccc(OC)c(OC)c2Cl)n[nH]c1C | 69
COc1ccc(C(=O)CNc2ccccc2CO)cc1 | 97
CC(C)[N+](C)(CCC(C(N)=O)(c1ccccc1)c1ccccc1)C(C)C | 100
Cc1ccc(S(=O)(=O)/C(C#N)=C/C2=Cc3ccccc3OC2)cc1 | 100

More results.
SMILES	Vaccinia pol inh
CC[N+](C)(C)c1cccc(O)c1	100
CC(=O)Oc1ccc2occ(C(=O)c3ccc(F)cc3)c2c1	97
Cc1ccccc1N=C1C(=O)N(CN2CCCCC2)c2ccc(Br)cc21	100
COC(=O)Cc1[nH]n(-c2nc3ccccc3s2)c(=O)c1C=Nc1ccc(C)cc1	100
CCc1ccc(NC(=O)CN2C(=O)CC(C)Sc3ccccc32)cc1 (centres undefined)	96
CC1(C)OC(=O)N(CC2CCCO2)C1(C)O (centres undefined)	97
Cn1c(=O)c2cc(C(=O)Nc3cccc(C(F)(F)F)c3)sc2c2ccccc21	103
Cc1nc(-c2ccc3ccccc3c2)cs1	91
Cc1ccc(C)n1CCN1CCN(C(=O)C(C)(C)C)CC1	102
CCCC(=O)Nc1cc(Cl)cc(Cl)c1	107
CC1CCN(C(=O)c2ccc(C(C)(C)C)cc2)CC1	100
O=C(c1[nH]c2ccccc2c1Sc1ccc(Cl)cc1)N1CCCC1	97
O=C(Cn1c(=O)n(Cc2ccccc2)c(=O)c2ccccc21)NCCC1=CCCCC1	101
CCOC(=O)CN1C(=O)C2(OCCCO2)c2ccccc21	108
CCN(CC)c1ccc(C=Nc2ccc(Br)cc2)cc1	92
O=C1Nc2ccccc2/C1=C\C1=Cc2ccccc2OC1	92
Clc1ccc(Nc2nnnc3ccccc23)cc1Cl	106
C[N+]1(CC(=O)OCCCC2CCCCC2)CCCCC1	100
CSC1=C(C#N)C2(CCCCC2)C2=C(CCC2)N1	100
O=C(O)c1cc(Br)c2ccccc2c1O	94
O=c1oc2cc3occ(-c4ccccc4)c3cc2c2ccccc12	100
O=C(c1ccc(Br)cc1)N1CCC(Cc2ccccc2)CC1	101
COc1ccc(C2=NS(=O)(=O)c3ccccc3N2)cc1OC	108
CCN(Cc1ccncc1)C(=O)c1cc(=O)c2ccccc2o1	104
O=C(/C=N/O)Nc1ccccc1C(=O)O	94
Cc1cc2n(n1)C(c1cccs1)Nc1ccccc1-2 (centres undefined)	89
O=C1NC(=Nc2ccccc2)S/C1=C\c1ccccc1	88
O=c1c2ccccc2c2ccccc2c(=O)n1-c1ccccc1	100
O=C(CSC(=S)N1CCOCC1)c1c[nH]c2ccccc12	104
COc1ccc(/C=C/c2cc(O)cc(O[C@@H]3O[C@H](CO)[C@@H](O)[C@H](O)[C@H]3O)c2)cc1O	99
O=C(NCc1cccs1)c1cc2c(s1)-c1ccccc1OC2	103
Cc1nn(Cc2c(Cl)cccc2Cl)c(C)c1NC(=O)c1noc2c1CC(C(C)(C)C)CC2 (centres undefined)	103
COc1ccc(CCn2c(=S)[nH]c3cc(C(F)(F)F)ccc32)cc1OC	92
COc1cccc(NC(=O)Cn2c(-c3cncs3)nc3ccccc32)c1	86
COc1ccc(-c2nc(CS(=O)CC(=O)N3CCCC3)c(C)o2)cc1 (centres undefined)	95
N#CC1(C#N)C(c2ccco2)OC23CCCCC2C1(C#N)C(=N)O3 (centres undefined)	100
COc1ccc(C(=O)NCC(c2cccnc2)N(C)C)cc1 (centres undefined)	91
CCCCN(C)C(=O)C1c2ccccc2C(=O)N(Cc2ccc(F)cc2)C1c1ccc(OC)cc1 (centres undefined)	104
CC(=O)OCC1=C(C(=O)O)N2C(=O)[C@@H](NC(=O)CSc3ccncc3)[C@H]2SC1	60*
CC1(C)CC(N=Cc2ccco2)CC(C)(C)N1	97
CCCc1nnc2n1N=C(c1ccc(Br)cc1)CS2	100
COCCn1c(=NC(=O)CSCC(=O)N2CCCc3ccccc32)sc2cc(OC)ccc21	98
O=C(NC1(c2ccccc2)CC1)N1CCN(c2ccccc2)CC1	94
CN(C(=O)c1ccc(-n2cnnn2)cc1)C1CC(C)(C)NC(C)(C)C1	91
O=C(NCc1nc(-c2ccccc2)no1)c1ccccc1	80

A different layout for some results above.
COc1ccc(-c2nc(CS(=O)CC(=O)N3CCCC3)c(C)o2)cc1 (centres undefined)
  Vaccinia pol inh = 95
N#CC1(C#N)C(c2ccco2)OC23CCCCC2C1(C#N)C(=N)O3 (centres undefined)
  Vaccinia pol inh = 100
COc1ccc(C(=O)NCC(c2cccnc2)N(C)C)cc1 (centres undefined)
  Vaccinia pol inh = 91
CCCCN(C)C(=O)C1c2ccccc2C(=O)N(Cc2ccc(F)cc2)C1c1ccc(OC)cc1 (centres undefined)
  Vaccinia pol inh = 104

Carrying on:
SMILES	Vaccinia pol inh
O=C1CN(C(=O)C2CCCC2)C(c2ccc(F)cc2)c2cc(F)ccc2N1 (centres undefined)	101
CC(Cc1ccco1)NC(=O)c1ccc(C(F)(F)F)cc1 (centres undefined)	105
CCC(OCC(O)CN1CCCC1)c1ccccc1 (centres undefined)	91
CCNc1ccc2oc3ccccc3c2c1	100
O=C(CCSc1ccccc1)Nc1nc2ccccc2s1	101
CCOc1ccc(NC(=S)NC(C)(C)CC)cc1	99
CNC(=O)c1cc(OC)ccc1Br	102
CCOC(=O)c1c(-c2ccccc2)csc1NC(=O)C(C)(C)C	93
Cc1cc(Nc2cccc(Cl)c2)nc2ccc(NC(=O)c3ccc(=O)[nH]c3)cc12	108
O=C(CN1C(=O)c2ccccc2S1(=O)=O)NC1CCCCC1	104
Cc1cc(C)c(-c2cc(N)n[nH]2)cc1C	101
CCNc1nc(OC(C(F)(F)F)C(F)(F)F)nc(N(c2ccccc2)c2ccccc2)n1	100
CCCCCCCC/C=C\CCCCCCCC(=O)OC[C@H](CO)OC(C)=O	100
CC(=O)NC(c1ccccc1)c1ccccc1	98
CCc1ccc(NC(=O)C(C)OC(=O)c2ccc3ccccc3n2)cc1 (centres undefined)	104
O=C(/C=C/c1ccc(F)cc1)NC(Cc1ccccc1)C(=O)O (centres undefined)	86
NC(=S)c1nc(-c2ccccc2)oc1N	101
C=COC(=O)c1sc2nc(C)cc(C)c2c1N	99
O=C(NC1CCN(Cc2ccccc2)CC1)c1ccc2c(c1)OCCCO2	112
CC1CCN(C(=O)Nc2csc3ccccc23)CC1	109
S=C1C=C(N2CCCCC2)CC(c2cccs2)S1 (centres undefined)	81
COc1cccc(NC(=O)COc2ccccc2F)c1	107
Cc1ccnc(NS(=O)(=O)c2ccc(N3C(=O)Nc4ccccc4N3O)cc2)c1	97
CN(C)C(=O)c1cn(-c2ccccc2)nc1-c1cc2ccccc2oc1=O	106
O=C1CC(n2nc(C(O)c3ccccc3)n(-c3ccccc3)c2=S)C2COC1O2 (centres undefined)	98
Cc1cc(C(F)(F)F)nn1CC(=O)O	95
CC(C)(C)C1CCc2c(sc3c2C(=O)NC(c2ccco2)N3)C1 (centres undefined)	100
Nc1nc(-c2cccnc2)nc2c1c(=O)oc1ccccc12	99
Cc1ccccc1CN1CCN(c2ccc(Cl)cc2)CC1	99
Cc1cccc(NC2=NS(=O)(=O)c3ccccc3N2)c1	98

Reprinted at random: 12 entries already listed, in no set order.
SMILES	Vaccinia pol inh
COc1ccc(CNC(=O)C2c3ccccc3C(=O)N(C)C2c2cccs2)cc1 (centres undefined)	96
O=C(c1[nH]c2ccccc2c1Sc1ccc(Cl)cc1)N1CCCC1	97
CCOC(=O)c1c(N2C(=O)C3ON(c4ccccc4C)C(c4ccccc4)C3C2=O)sc(C)c1C (centres undefined)	100
NC(=S)c1nc(-c2ccccc2)oc1N	101
O=C(c1ccc(Br)cc1)N1CCC(Cc2ccccc2)CC1	101
CC(=O)NC(c1ccccc1)c1ccccc1	98
Cc1nc2cc(N)ccc2n1-c1ccccc1	96
O=C(CCN1C(=O)C2CC=CCC2C1=O)N1CCN(c2ccccn2)CC1 (centres undefined)	97
CC(C)(C)C1CCc2c(sc3c2C(=O)NC(c2ccco2)N3)C1 (centres undefined)	100
COc1ccc(-c2nc(CS(=O)CC(=O)N3CCCC3)c(C)o2)cc1 (centres undefined)	95
COc1ccc(/C=N/O)cc1Cl	89
Clc1cccc(C2NCCc3[nH]cnc32)c1 (centres undefined)	98

Continuation:
SMILES	Vaccinia pol inh
CCN1CCCC1CNC(=O)c1nnc(Cc2cccc(F)c2)o1 (centres undefined)	108
O=C(CCCc1c[nH]c2ccccc12)NCc1ccccc1C(F)(F)F	111
S=C1CCc2ccccc2N1Cc1ccccc1	98
NS(=O)(=O)c1ccc(CNS(=O)(=O)c2ccccc2)cc1	100
NC(=O)CCN1CCn2c1nc1ccccc12	100
Oc1ccccc1C=Nc1ccccc1O	101
O=C(Nc1ccc(OCC(O)Cn2c3ccccc3c3ccccc32)cc1)c1ccccc1 (centres undefined)	99
O=c1oc2ccccc2c(Cl)c1CN1CCCC1	94
COc1cc(Cc2nnc(C(=O)NCc3ccccc3)o2)cc(OC)c1OC	106
N#C/C(=C\C=C\c1ccccc1)c1cccc(Cl)c1	103

From PubChem

These rows are one share of the data; count on the stated rates, not on these rows.
